# Source: PubChem (National Center for Advancing Translational Sciences (NCATS))
# Six1-Eya2 blk: inhibitors of human Six1/Eya2 interaction. AlphaScreen GST-Six1/His-Eya2 binding, biochemical; active compounds read low; control for the full effect not named in the record. activity change, % (concentration not given with the values). actives 0.56% (n = 360,000). AID 651725; in the data active = activity change below about -65%; inconclusive = about -30% to -65%; inactive = above about -30%; note: % is set by controls: 0 for no effect and ±100 for the full control effect
# Target sequence (O00167 whole entry, looked up): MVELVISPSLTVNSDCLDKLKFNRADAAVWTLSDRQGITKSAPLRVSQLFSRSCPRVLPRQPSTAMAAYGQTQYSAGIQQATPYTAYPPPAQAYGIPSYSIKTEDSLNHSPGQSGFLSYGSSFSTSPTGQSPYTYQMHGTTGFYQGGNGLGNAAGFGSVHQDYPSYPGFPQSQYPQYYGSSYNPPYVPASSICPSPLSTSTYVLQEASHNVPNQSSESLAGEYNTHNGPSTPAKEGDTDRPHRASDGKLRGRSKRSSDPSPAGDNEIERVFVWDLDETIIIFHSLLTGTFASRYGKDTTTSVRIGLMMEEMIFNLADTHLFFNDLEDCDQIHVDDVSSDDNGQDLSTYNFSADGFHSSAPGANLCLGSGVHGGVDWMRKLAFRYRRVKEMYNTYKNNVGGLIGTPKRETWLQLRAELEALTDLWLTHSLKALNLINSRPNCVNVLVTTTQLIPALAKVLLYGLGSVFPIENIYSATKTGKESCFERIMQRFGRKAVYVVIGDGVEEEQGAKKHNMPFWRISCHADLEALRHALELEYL
# Target sequence (Q15475 whole entry, looked up): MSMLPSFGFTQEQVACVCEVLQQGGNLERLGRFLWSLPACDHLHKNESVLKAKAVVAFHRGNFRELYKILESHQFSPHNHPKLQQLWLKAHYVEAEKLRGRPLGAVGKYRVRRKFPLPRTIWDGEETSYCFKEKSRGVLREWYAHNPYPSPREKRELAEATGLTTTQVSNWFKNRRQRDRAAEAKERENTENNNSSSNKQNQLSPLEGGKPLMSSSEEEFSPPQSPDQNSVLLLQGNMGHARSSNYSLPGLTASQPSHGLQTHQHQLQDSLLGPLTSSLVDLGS
#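 Homogeneous AlphaScreen proximity assay pairing GST-Six1 with His-tagged Eya2 (added as 5X mix: 250 nM and 500 nM) in 50 mM Tris pH 8.0, 300 mM NaCl, 1 mM TCEP. Glutathione donor and nickel acceptor beads; 1 h, 37 °C, dark.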
# PINK1 expr mod: changes PINK1 expression; PINK1 immunofluorescence, high-content cytometry, 24 h; Potency, µM (series often up to 76.6 µM), without a hit: at the highest dose activation (PINK1 increase), hits mostly activators; actives 0.2% (n = 410,000); active = well fitted activation curve with a large enough effect; inconclusive = small, poorly fitted or top-dose-only effect; inactive = flat fitted curve, though single readings scatter; cell line not stated here;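 note: potency is the fitted concentration of half-maximal effect; % of control where 0% means no effect; nearly all actives have a fitted effect of over 65% in size; a mitochondrial uncoupler was the plate control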
#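 A stable cell line was treated with compounds at 5 concentrations for 24 hours, with CCCP as control. PINK1 levels and mitochondrial localization were measured by immunofluorescence with mitochondrial, cell and nuclear markers after fixation, read by laser-scanning cytometry.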
# CtBP-E1A blk: inhibitors of CtBP/E1A interaction. AlphaScreen GST-E1A/His-CtBP binding, 1536-well; active compounds read low; control for the full effect not named in the record. activity change, % (concentration not given with the values). actives 0.49% (n = 340,000). AID 651724; in the data active means activity change below about -65%; inconclusive means about -30% to -65%; inactive means above about -30%; note: % is set by controls: 0 for no effect and ±100 for the full control effect
#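 AlphaScreen with 125 nM GST-E1A and 125 nM His-CtBP (5X stocks) in Tris pH 8.0, 300 mM NaCl, BSA, Tween 20, TCEP. Compounds preincubated 2 h at 37 deg C, then glutathione donor/nickel acceptor beads added for 1 h at 37 deg C in dark.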
# D2 ag: human D2 receptor agonism in beta-arrestin assay; P14416; DiscoveRx PathHunter D2 beta-arrestin, luminescence, 90 min; 100% = 57 uM dopamine signal; activation, % (concentration not given with the values); actives 0.084% (n = 360,000); in the data active = activation above about 40%; inconclusive = about 15% to 40%; inactive = below about 15%; note: compound concentration not given in the record; the text of the record calls up to 30% inactive
#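 DiscoveRx PathHunter D2 beta-arrestin cells (2,100/well) attached overnight, then compound-stimulated 90 min at 37 C in HBSS/10 mM HEPES/0.1% Tween-20 buffer; beta-galactosidase complementation read by luminescence after 1 h at ambient temperature. Dopamine 57 uM final (EC100) as control.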
# TRPML1 agonist: agonists of human TRPML1 channel; Q9GZU1; TRPML1-expressing cells, Ca2+ dye fluorescence, FDSS; host cell line not named in the record; reference of the full effect not given here; activation, % (test concentration not listed); actives 0.12% (n = 410,000); AID 624414; in the data active = activation above about 50%; inconclusive = about 30% to 50%; inactive = below about 30%; note: 0% is about no effect; the text of the record puts the active cut at 80%
#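 In this qHTS format, compounds were pin-transferred onto Ca8-dye-loaded TRPML1-DL cells induced with Tet overnight, and intracellular Ca2+ fluorescence was recorded kinetically for 110 s after a 10 s baseline. A subsequent 4uM final 54-4 (EC80) addition followed by a second 110 s read served as the antagonist phase.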
# D2 potentiator: potentiates the human D2 dopamine receptor allosterically; P14416; DiscoveRx D2 beta-arrestin cells, luminescence, 90 min; 100% = 57 uM dopamine signal; potentiation, % (test concentration not listed); actives 0.23% (n = 360,000); AID 624464; active = potentiation of 50% or more; inconclusive = 30% to 50%; inactive = 30% or less;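 note: compound concentration not given in the record; tested on top of an EC20 dose of dopamine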
#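 PathHunter D2 cells, attached overnight at 37 deg C, received compound in DMSO plus dopamine at EC20 (50 nM final) for 90 min at 37 deg C. Beta-arrestin recruitment was read as luminescence after 1 h with detection reagent at ambient temperature.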
# * = called active by the depositor; ? = inconclusive; · = not tested or not shown; & = joins results of further samples; [ ] = dose if it differs, or a comment. Random draw from the library; overall some 1.3% were active at least once.
# Every second line gives: D2 ag	TRPML1 agonist	CtBP-E1A blk	PINK1 expr mod	D2 potentiator	Six1-Eya2 blk
- COc1ccc(C=O)cc1COc1ccc2c(c1)OCO2
  0.0	0.6	-11.4	11.0%	0.2	-18.4
- COc1ccc(NC(=O)Nc2ccc(CC(=O)O)cc2)cc1
  -3.5	-0.4	8.8	-2.2%	-3.5	-0.5
- CCN(CC(=O)NCc1cccs1)C(=O)c1cc(Br)ccc1O
  -2.8	-1.2	·	3.8%	0.7	-4.7
- O=C1CC(=O)CC(c2ccccc2Cl)C1
  -3.5	-0.4	0.2	-1.1%	-15.4	0.7
- CCOC(=O)c1cc2c(s1)-c1c(C)cccc1OC2
  -6.2	0.5	157.5	?	-3.4	129.2
- CNc1snc(C)c1C(=O)OC(C)C(=O)c1ccc(F)cc1 (configuration not stated)
  1.7	1.0	6.8	1.2%	-0.4	8.2
- O=C(CCCc1ccccc1)NCCCN1CCOCC1
  -1.2	0.8	6.7	2.1%	-12.7	5.9
- Cc1ccc(SCC(=O)c2c(C)[nH]c3ccccc23)cc1
  -4.8	0.4	8.4	2.5%	-6.9	9.5
- CCOc1ccc(NC(=O)c2cc([N+](=O)[O-])ccc2N2CCOCC2)cc1
  -1.2	-0.5	12.9	7.5%	1.4	-17.2
- COc1ccc(C2(C(=O)Nc3ccc(S(N)(=O)=O)cc3)CCCC2)cc1
  -4.5	0.7	7.2	-0.1%	-6.0	3.0
- Cc1cccc(C)c1OCC(=O)Nc1ccc(N2CCOCC2)cc1
  -4.5	0.1	·	2.1%	0.8	-3.7
- CC(Oc1ccc(Br)cc1)C(=O)Nc1ccc(S(=O)(=O)NC2=NCCCCC2)cc1 (configuration not stated)
  -3.3	13.7	0.0	-0.6%	-3.8	11.6
- O=C(CCN1CCN(Cc2ccccc2)CC1)Nc1cccc(Br)c1
  -1.8	-0.6	6.4	1.3%	-13.9	-4.4
- CCCn1c(SCc2nc3sc(C)c(C)c3c(=O)[nH]2)nc2ccccc2c1=O
  -3.2	-0.1	3.6	-0.9%	-8.0	-2.6
- CCCCOc1cccc(OCC(=O)Nc2nc3ccccc3[nH]2)c1
  -2.2	4.7	0.0	9.0%	-2.0	17.5
- OCCN1CNC(=S)NC1
  -3.4	0.2	9.2	1.5%	-5.2	4.6
- C/C(=N/O)c1c(O)c(C)c(-c2ccccc2)n(-c2ccccc2)c1=O
  -2.1	0.4	20.9	-1.9%	7.9	6.4
- Cc1cc(C)n2nc(SCCC(=O)NCCc3ccccc3)nc2n1
  1.6	0.3	0.5	0.3%	-6.6	9.8
- N#Cc1cc2c(nc1SCC(=O)Nc1sc3c(c1C#N)CCC3)CCCCC2
  -1.7	-0.1	4.1	?	-2.0	2.3
- COc1ccc(NC(=O)COC(=O)COc2cccc(Br)c2)cc1OC
  -4.8	-1.4	-4.2	0.2%	1.4	17.9

# (list continues)
# Every second line gives: D2 ag	TRPML1 agonist	CtBP-E1A blk	PINK1 expr mod	D2 potentiator	Six1-Eya2 blk
- O=c1[nH]c2ccccc2n1C1=CCCC1
  -0.4	0.5	3.8	0.3%	-28.6	4.9
- Cc1cc(C)cc(C(=O)NC(=S)Nc2ccc(-c3cc4ccccc4oc3=O)cc2)c1
  -1.2	-0.3	10.0	2.2%	-11.2	-0.7
- NS(=O)(=O)c1ccc(CCNCc2ccccc2OCc2ccc(Cl)cc2)cc1
  -7.8	-0.2	-7.2	-1.3%	-22.7	-8.4
- CCc1c(C)sc(NC(=O)c2cc(C)no2)c1C#N
  -7.6	-0.4	-23.1	-0.8%	-9.8	3.4
- Cc1c(C(=O)N2CCCCC2C)sc2ncnc(N3CCc4ccccc4C3)c12 (configuration not stated)
  -1.6	1.9	-6.3	0.0%	-3.4	-8.2
- COc1ccc(C2CC(c3ccco3)n3ncnc3N2)cc1 (configuration not stated)
  -1.4	0.6	0.0	1.3%	-4.1	6.6
- COc1cc(C(C)=O)ccc1OCC(O)CN1CCN(c2ccc(C)cc2C)CC1 (configuration not stated)
  -2.5	-0.1	6.4	0.2%	-13.7	7.3
- Cc1ccc(C(C(=O)NCC2CCCO2)N(C(=O)c2snc(C(N)=O)c2N)c2ccc(C(C)C)cc2)o1 (configuration not stated)
  -2.3	4.4	-3.4	0.3%	1.3	10.4
- CCOc1cccc2sc(NC(=O)CC)nc12
  -1.8	0.0	0.0	1.7%[38.3 µM]	0.9	2.1
- CCOc1ccc(NS(=O)(=O)c2ccc(C(=O)N(C)CC(=O)Nc3ccccc3Br)cc2)cc1
  0.4	-0.2	5.7	0.0%	-4.1	-1.2
- COc1ccc(OCC(=O)OCCN2C(=O)c3ccccc3C2=O)cc1
  -2.6	-0.3	2.8	·	-3.8	24.5
- CCC(=O)Nc1ccc(C(=O)CN2C(=O)NC3(CCCCCC3)C2=O)cc1
  -0.5	-0.1	·	1.5%	8.6	-8.3
- CC(=O)Oc1ccc(-c2cccc(C(=O)NCC(=O)O)c2)cc1
  -2.1	-0.1	-0.9	-1.5%	-15.4	3.1
- CCc1ccc(-c2cc3c(=O)n(CC(=O)N4CCCC4)nc(C)n3n2)cc1
  -3.7	0.8	13.3	1.2%	-12.7	2.1
- CCCCCCn1c(NCC)nc2c1c(=O)[nH]c(=O)n2C
  -1.2	6.2	4.1	3.1%	-16.5	9.2
- COc1cccc(NC(=O)COc2cc(C)cc3oc(=O)cc(C)c23)c1
  2.2	1.7	-0.4	3.5%	-7.4	3.7
- CCOC(=O)c1nnn(-c2nonc2N)c1CN1CCCCCC1
  0.1	-1.0	-5.1	50.6%[38.3 µM]	-2.0	1.8
- CCc1cc(-c2n[nH]c(C)c2-c2nc(C)cs2)c(O)cc1OC
  4.3	2.6	16.4	0.9%	-3.9	-2.6
- CN(C)/C=C(\C#N)C(=O)N/N=C/c1ccccc1
  -1.5	-0.1	0.0	-0.2%	-7.3	-0.8
- COc1ccc(S(=O)(=O)N(CCC#N)Cc2ccco2)cc1OC
  -1.2	4.8	-4.0	0.9%	-2.8	-1.2

# The list goes on.
# Every second line gives: D2 ag	TRPML1 agonist	CtBP-E1A blk	PINK1 expr mod	D2 potentiator	Six1-Eya2 blk
- CCS(=O)(=O)c1ccc(O)c(NC(=O)c2cc(OC)c(OC)c(OC)c2)c1
  -5.5	-0.4	-1.2	9.9%[38.3 µM]	-13.4	-2.1
- CC(C)OC(=O)Nc1ccc2c(c1)N(C(=O)N1CCN(C)CC1)c1ccccc1CC2
  0.2	0.6	-0.2	1.4%	-19.6	7.4
- CCCCOc1ccc(OC(=O)c2cccnc2)cc1
  -0.1	-0.6	14.0	-1.9%	7.9	11.6
- COC(=O)[C@@]1(Cc2ccc(F)cc2)[C@H]2c3cc(C(=O)N4CCCC4)n(Cc4ccc(C)o4)c3C[C@H]2CN1C(=O)c1ccccc1
  ·	1.9	-14.7	5.1%	·	-24.5
- Cc1cc(C)n(CC(=O)n2nc(C)cc2C)n1
  -0.2	-0.5	5.9	-0.6%	-4.5	10.7
- Cc1cccc(NC(=O)CSc2nc3[nH]ncc3c(=O)[nH]2)c1C
  -1.2	-0.4	-19.3	1.0%	-15.0	-10.2
- O=C(C1=C[C@H](c2csc3ccccc23)C[C@H](OCc2ccc(CO)cc2)O1)N1CCOCC1
  3.9	-0.3	-0.4	1.3%	-19.4	-3.8
- COc1cc(CN2CCN(C(=O)CC(C)C)CC2)cc(OC)c1OC
  0.5	4.1	3.4	1.1%	3.0	11.1
- COc1ccc(C2(CNC(=O)c3ccc(OCC(C)C)cc3)CCOCC2)cc1
  2.2	3.5	-2.4	2.7%	-3.4	-6.2
- CCN1CCN(Cc2cc(=O)oc3cc(C)cc(C)c23)CC1
  -2.1	-0.2	11.7	-2.1%	-13.1	1.1
- COc1ccc(S[C@@H](CCN2CC[C@H](O)CCC2=O)c2ccccc2)cc1
  -1.0	-0.5&-0.2	2.2	0.0%	-4.9	-1.5
- COC(=O)[C@H]1C[C@H](OC(=O)NC2CCCC2)[C@@]2(O)CN(S(=O)(=O)c3ccc(C)cc3)CC2[C@H]1C(=O)OC (some centres not stated)
  -5.6	-0.5	-0.3	1.3%	-1.4	-5.2
- O=S(=O)(NCc1ccccc1Br)c1ccccc1Br
  -1.3	2.0&-1.2	6.4	0.9%	-8.7	9.0
- O=C(N/N=C\c1cccc([N+](=O)[O-])c1O)C1COc2ccccc2O1 (configuration not stated)
  -4.6	0.4	-96.3*	-0.4%	-25.7	-88.1*
- CC(/C=N/NC(=O)CSc1n[nH]c(=O)[nH]c1=O)=C\c1ccccc1
  -1.4	-1.0	2.3	-0.5%	-3.5	-13.4
- O=C(NNc1cc(Cl)cc(Cl)c1)C1CCC1
  -5.6	0.3	2.0	0.3%	-5.3	2.2
- COc1ccc(NC(=S)NNC(=O)c2cccs2)cc1
  -7.6	0.3	1.7	-1.0%	-28.0	1.5
- COc1cccc(CNc2ncnc3cc(OC)c(OC)cc23)c1
  -2.1	-0.8	-7.8	6.4%	-3.7	-14.9
- CCc1ccc(OCC(O)CN2CCN(c3ccc(OC)cc3)CC2)cc1 (configuration not stated)
  -6.2	1.0	-17.1	-1.2%	-12.0	-20.3
- c1ccc(NC2=NCCN2CCCC2CCCC2)cc1
  -3.9	0.1	4.0	1.5%	-19.7	3.9

# Other compounds follow:
# Every second line gives: D2 ag	TRPML1 agonist	CtBP-E1A blk	PINK1 expr mod	D2 potentiator	Six1-Eya2 blk
- COc1cccc(N2CCN(CC(=O)NC3=Nc4ccccc4N=C(C)C3c3ccccc3)CC2)c1 (configuration not stated)
  12.4	1.2	-17.1	0.4%	9.0	-26.5
- Nc1nn(-c2ccccc2Cl)cc1-c1nn[nH]n1
  -6.8	0.1	·	1.1%	-17.0	6.3
- Oc1cccc(-c2nc3ccc4ccccc4c3c3c2CCC3)c1
  -1.4	-0.4	-10.2	1.0%	18.4	-24.5
- CCOc1ccc(S(=O)(=O)Nc2ccc(C(=O)N(C)CC(=O)Nc3ccc(OC)cc3)cc2)cc1
  -1.3	-0.5	-3.2	-2.6%	-7.2	-0.5
- CC1(C)CC2(CCO1)OC(=O)CC2C(=O)Nc1cccc2ccccc12 (configuration not stated)
  -2.3	-0.9	5.4	12.2%	6.3	5.9
- O=C(O)c1ccc(N/N=C/c2ccc(-c3cccc(Cl)c3)o2)cc1
  12.1	·	-4.9	?	2.8	1.3
- CCCCCN1CC(O)=C(c2nc(-c3ccc(Cl)cc3)cs2)C1=N
  -2.9	-0.1	-2.4	?	-15.9	-3.9
- CCN1CCCC1CN(Cc1cc2ccc(C)cc2[nH]c1=O)C(=S)Nc1ccc(F)cc1 (configuration not stated)
  -7.2	0.3	-5.6	2.2%	-1.8	1.6
- O=C1CN(C(=O)COC(=O)/C=C/c2ccc(F)cc2)c2ccccc2N1
  1.8	1.7	-19.3	1.2%	-3.5	3.9
- Cc1cc(C(=O)N2CCC2(C)C(=O)NCCC#N)nn1C (configuration not stated)
  5.1	0.4	6.8	3.3%	-4.3	4.6
- CC(C)(C)n1nnnc1C(c1ccccc1)N1CCN(C/C=C/c2ccccc2)CC1 (configuration not stated)
  -3.0	-0.1	-0.8	0.3%	-12.8	-5.3
- Fc1ccc(NC(=S)NCc2cccs2)cc1
  3.9	0.7	-9.6	7.9%	-13.9	3.5
